Compound activity from PubChem BioAssay.
Calb biofilm kill – mixtures killing C. albicans biofilm; C. albicans biofilm persisters + clotrimazole, fluorescence viability; primary screen in compound mixtures of four per well; 120,000 tested, 0.02% active; inhibition, % at 7.6 µM;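 active = inhibition above 30.3% in the primary screen of four-compound pools, then above 30% when the compound was retested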;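 note: compounds exposed to preformed 24 h biofilms for 48 h; the number belongs to the whole pool; some results filed as inactive read as strong as hits; inactives centre near 12; 0% = biofilm with clotrimazole alone and 100% = kill control; retested singly at about 60 µM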
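System: C. albicans CAF4-2 wild-type biofilms; Medium: RPMI/MOPS medium, pH 7.0; Reagent: Clotrimazole, 50 µg/mL; Times: biofilm formation 24 h, compound exposure 48 h, 37 °C; Detection: 2-h Alamar Blue fluorescence, 535/590 nm excitation/emission; Evaluation: percent inhibition of biofilm viability.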
* marks the source's active call; other numbers are inactive results. A portion of the library; count on the stated rates, not on these rows.

SMILES | Calb biofilm kill
COc1ccc(C(=O)C2CCCN(C(=O)c3noc4c3CCCC4)C2)cc1F (stereo not given) | 14
CSc1nc(=S)c2[nH]c(=S)[nH]c2[nH]1 | 11
COCCn1c(=O)[nH]c2cc(C(=O)NCCc3ccc(S(N)(=O)=O)cc3)ccc2c1=O | 6
CCOC(=O)c1c(NC(=O)CCN2CCOCC2)sc(C)c1-c1ccccc1 | 14
CC(Sc1nc2ccccc2s1)C(=O)Nc1ccc2c(c1)OCO2 (stereo not given) | 14
CCOc1ccccc1NC(=O)Nc1ccccn1 | 15
CCCNC(=O)c1nc(C)n(-c2ccc([N+](=O)[O-])cc2)n1 | 12
CCCS(=O)(=O)N1CCCC(C(=O)NCC(OC)OC)C1 (stereo not given) | 8
CN(C)/C=C(\C#N)C(=O)N/N=C/c1ccc(Cl)cc1 | 5
CC(=O)Oc1c(C(=O)c2nnc(C)o2)c(=O)n(Cc2ccccc2)c2ccccc12 | -12
COc1ccc(Cn2c(=O)c3[nH]cnc3n(-c3ccc(C)cc3)c2=O)cc1 | 11
O=C(Nc1ccc(F)cc1)c1ccc(COc2ccccc2)cc1 | 5
CCC(C)NCCOc1cc(C)cc(C)c1C (stereo not given) | 15
C=CCOc1ccccc1/C=c1\sc2nc(=O)c(C)nn2c1=O | 14
COC(=O)c1cc(=O)n(-c2ccc(C(F)(F)F)cc2)[nH]1 | 5
CCOC(=O)/C(=N\Nc1cc(Cl)ccc1Cl)N1CC(C)OC(C)C1 (stereo not given) | 12
CC(C)(C)c1ccccc1NC(=S)NC1CCCCC1 | 6
Cc1ccc(OCc2ccc(C(=O)NCC3CCCO3)cc2)cc1 (stereo not given) | 12
CCc1ccc(N2C(=O)C3C(C2=O)N2CCCN2C3c2ccccc2)cc1 (stereo not given) | 11
O=C(NC(=S)NCC1CCCO1)c1ccccc1Br (stereo not given) | 7
CC(SCCc1ccccn1)C(=O)O (stereo not given) | 11
CCc1nnc(NS(=O)(=O)c2ccc(NC(=O)c3ccc(Cl)cc3)cc2)s1 | -6
OC(COc1ccc2c(c1)OCO2)CN1CCN(c2ccc(F)cc2)CC1 (stereo not given) | -3
O=C(Cc1cccc2ccccc12)N/N=C/C=C/c1cccc([N+](=O)[O-])c1 | 17
Cc1[nH]c2ccccc2c1CCN(Cc1cccnc1)C(=S)Nc1cccc(F)c1 | 14
Cc1cn(S(=O)(=O)c2ccc(Cl)cc2)c(C)n1 | 11
O=C(Nc1ccc(C(=O)O)cc1)/C(=C\c1ccc2c(c1)OCO2)NC(=O)c1ccc(Br)o1 | 21
C=CCN1c2ccccc2[C@]23C[C@@H](C(=O)OC)N(C(=O)c4cc(C)oc4C)C2=NC(C(=O)OC)=C(C(=O)OC)[C@H]13 | 16
CC(C)C1N(C(N)=S)N=CC1(C)C (stereo not given) | 20
Cc1cc(C)cc(C(=O)Nc2ccc(N3CCN(S(C)(=O)=O)CC3)cc2)c1 | 10
CCN(CC)S(=O)(=O)c1ccc(Cl)c(C(=O)Nc2nnc(C)s2)c1 | 9
On1nnc2ccc(C(F)(F)F)cc21 | 8
CCOc1ccc(NC(=O)N2CCC(c3nc4ccccc4o3)CC2)cc1 | 5
NS(=O)(=O)c1ccc(CCNC(=O)c2ccc([N+](=O)[O-])cc2[N+](=O)[O-])cc1 | 18
CCCn1nc(C(=O)Nc2ccc(S(=O)(=O)Nc3ncccn3)cc2)c2ccccc2c1=O | 10
CC1CC(C)CN(C(=O)CCNS(=O)(=O)c2ccc3c(c2)CCC(=O)N3)C1 (stereo not given) | 20
COc1ccc(CCN(Cc2cc3cccc(C)c3n3nnnc23)C(=O)c2ccncc2)cc1OC | 8
Cn1cccc1-c1cc(C(=O)O)[nH]n1 | 14
COc1ccc(NS(=O)(=O)/C=C/c2ccc(OC)c(OC)c2)cc1 | 3
CC12CCC(C(=O)N(NC(=O)c3ccccc3O)C1=O)C2(C)C (stereo not given) | 12

Given field by field: 2 of the compounds above.
> On1nnc2ccc(C(F)(F)F)cc21
  Calb biofilm kill: 8

> CCOc1ccc(NC(=O)N2CCC(c3nc4ccccc4o3)CC2)cc1
  Calb biofilm kill: 5

Later entries.
SMILES | Calb biofilm kill
Cc1cc(C)cc(NC(=O)NCc2c(-c3ccccc3)noc2C)c1 | 15
C=CCc1c(C)c(C#N)c2nc3ccccc3n2c1N1CCCCC1 | 7
CCN(c1ccc(NC(=O)COC(=O)CCc2cc(OC)c(OC)c(OC)c2)cc1)C(C)C | 31
COc1ccccc1CNC(=O)C(NC(=O)c1ccc(C)cc1)C(C)C (stereo not given) | 7
CC(=O)N/C(=C/c1ccc(OS(=O)(=O)c2ccc(C)cc2)cc1)C(=O)NCCO | 8
CC(C)[C@H]1C=C(C(=O)O)O[C@@H](OCc2ccc(CO)cc2)C1 | 22
CCCCc1nc(Cl)c(C#N)c2c1CCC2 | 19
Cc1nnc2sc(SCC(=O)Nc3ccc(Cl)cc3)nn2c1=O | 12
CC(C)CCNC(=O)COc1ccc(C(=O)c2ccccc2)cc1 | 9
CCOC(=O)C(=O)N(Nc1ccccc1C)c1ccccc1C | 20
O=C(C[n+]1ccc(/C=C/c2ccccc2)cc1)c1ccc2c(c1)OCCO2 | 4
O=C(NCCCN1CCCC1=O)c1ccc(OC(F)(F)F)cc1 | -10
O=C(c1cc(COc2ccc(F)cc2Cl)on1)N1CCCC(OCc2cccnc2)C1 (stereo not given) | 12
O=[N+]([O-])c1ccc(NCCCNS(=O)(=O)c2ccccc2)cc1 | 3
COc1ccc(NC(=S)N2CCCN(Cc3cc(C)ccc3C)C2)cc1 | 13
Cc1cc(OCC(=O)NC2CCCCC2)ccc1Cl | 22
COc1cc(OC)c(S(=O)(=O)Nc2ccc(C)cn2)cc1NC(C)=O | -7
CC(C)CC(=O)Nc1ccc(C(=O)Nc2cccc(O)c2)cc1 | 10
COc1ccc(/C=N/NC(=O)c2ccoc2C)cc1O | 10
CC1CCN(S(=O)(=O)c2ccc(N=NC3=C(O)CC(C)(C)CC3=O)cc2)CC1 | 9

Part of the list above in order of length of the SMILES, descending.
SMILES | Calb biofilm kill
C=CCN1c2ccccc2[C@]23C[C@@H](C(=O)OC)N(C(=O)c4cc(C)oc4C)C2=NC(C(=O)OC)=C(C(=O)OC)[C@H]13 | 16
NS(=O)(=O)c1ccc(CCNC(=O)c2ccc([N+](=O)[O-])cc2[N+](=O)[O-])cc1 | 18
O=C(Nc1ccc(C(=O)O)cc1)/C(=C\c1ccc2c(c1)OCO2)NC(=O)c1ccc(Br)o1 | 21
COCCn1c(=O)[nH]c2cc(C(=O)NCCc3ccc(S(N)(=O)=O)cc3)ccc2c1=O | 6
COc1ccc(CCN(Cc2cc3cccc(C)c3n3nnnc23)C(=O)c2ccncc2)cc1OC | 8
CC(=O)N/C(=C/c1ccc(OS(=O)(=O)c2ccc(C)cc2)cc1)C(=O)NCCO | 8
CC1CCN(S(=O)(=O)c2ccc(N=NC3=C(O)CC(C)(C)CC3=O)cc2)CC1 | 9
O=C(Cc1cccc2ccccc12)N/N=C/C=C/c1cccc([N+](=O)[O-])c1 | 17
CC1CC(C)CN(C(=O)CCNS(=O)(=O)c2ccc3c(c2)CCC(=O)N3)C1 (stereo not given) | 20
Cc1cc(C)cc(C(=O)Nc2ccc(N3CCN(S(C)(=O)=O)CC3)cc2)c1 | 10
COc1ccc(Cn2c(=O)c3[nH]cnc3n(-c3ccc(C)cc3)c2=O)cc1 | 11
O=C(C[n+]1ccc(/C=C/c2ccccc2)cc1)c1ccc2c(c1)OCCO2 | 4
CC(C)[C@H]1C=C(C(=O)O)O[C@@H](OCc2ccc(CO)cc2)C1 | 22
COc1ccc(C(=O)C2CCCN(C(=O)c3noc4c3CCCC4)C2)cc1F (stereo not given) | 14
CCc1ccc(N2C(=O)C3C(C2=O)N2CCCN2C3c2ccccc2)cc1 (stereo not given) | 11
CCOC(=O)/C(=N\Nc1cc(Cl)ccc1Cl)N1CC(C)OC(C)C1 (stereo not given) | 12
COc1ccc(NS(=O)(=O)/C=C/c2ccc(OC)c(OC)c2)cc1 | 3
COC(=O)c1cc(=O)n(-c2ccc(C(F)(F)F)cc2)[nH]1 | 5
COc1ccc(NC(=S)N2CCCN(Cc3cc(C)ccc3C)C2)cc1 | 13
CC(Sc1nc2ccccc2s1)C(=O)Nc1ccc2c(c1)OCO2 (stereo not given) | 14
CN(C)/C=C(\C#N)C(=O)N/N=C/c1ccc(Cl)cc1 | 5
Cc1ccc(OCc2ccc(C(=O)NCC3CCCO3)cc2)cc1 (stereo not given) | 12
CCCS(=O)(=O)N1CCCC(C(=O)NCC(OC)OC)C1 (stereo not given) | 8
CCOC(=O)C(=O)N(Nc1ccccc1C)c1ccccc1C | 20
Cc1cn(S(=O)(=O)c2ccc(Cl)cc2)c(C)n1 | 11
CSc1nc(=S)c2[nH]c(=S)[nH]c2[nH]1 | 11
CC(C)(C)c1ccccc1NC(=S)NC1CCCCC1 | 6
O=C(NC(=S)NCC1CCCO1)c1ccccc1Br (stereo not given) | 7
Cc1cc(OCC(=O)NC2CCCCC2)ccc1Cl | 22
Cn1cccc1-c1cc(C(=O)O)[nH]n1 | 14
CCCCc1nc(Cl)c(C#N)c2c1CCC2 | 19
CCC(C)NCCOc1cc(C)cc(C)c1C (stereo not given) | 15
On1nnc2ccc(C(F)(F)F)cc21 | 8

Next part:
SMILES | Calb biofilm kill
CC(=O)Nc1ccc(NC(=O)c2ccc(COc3ccc4c(C)cc(=O)oc4c3)cc2)cc1 | 11
NC(=O)c1c(NC(=O)Cn2cnc([N+](=O)[O-])n2)sc2c1CCCC2 | 18
O=C(NCCOc1ccc2ccccc2c1)c1cncc(Br)c1 | 17
O=C(/C=C/c1ccccc1)NC(=S)Nc1ccc2c3c(cccc13)CC2 | 19
CCOC(=O)C1=C(C)N(CCCC(=O)O)C(=O)NC1c1ccc([N+](=O)[O-])cc1 (stereo not given) | 12
CCn1c2ccccc2c2cc(/C=N/NC(=O)c3ccc(O)cc3)ccc21 | 23
CN1CCN(S(=O)(=O)c2ccc(NC(=S)NC(=O)C3CCCC3)cc2)CC1 | 14
NC1CCN(c2c(F)cc3c(=O)c(C(=O)O)cn(C4CC4)c3c2Cl)C1 (stereo not given) | 2
CCCCCCSc1nnc(N)s1 | 16
COc1ccc(-c2cc(C(=O)NNC(=S)NC(=O)c3c(-c4ccccc4)noc3C)[nH]n2)cc1 | 16
COc1cc([C@@H]2c3cc4c(cc3[C@@H](O)[C@H]3COC(=O)[C@H]23)OCO4)cc(OC)c1O[Si](C)(C)C(C)(C)C | 11
CO/N=C/c1ccc(N2CCCC2)c([N+](=O)[O-])c1 | -1
O=C(Nc1ccccc1Cl)OCc1cncs1 | 4
COc1cc(/C=N/N2C(=O)CSC2=S)cc(Br)c1O | 10
Cc1cc(C(C)C)n2c(nc3ccccc32)c1C#N | 4
CC(=O)Nc1cccc(C(=O)OCc2ccc([N+](=O)[O-])cc2)c1 | 20
O=C(c1ccc(Br)o1)N(c1ccccn1)C1CCCCC1 | 21
O=Cc1ccc(-c2ccccc2C(=O)O)o1 | 18
COc1ccc(/C=N/NC(=O)c2cc(O)c(O)c(O)c2)cc1Cn1cc([N+](=O)[O-])cn1 | 12
Cc1cc(-c2n[nH]c(=S)n2Cc2ccco2)nn1C | 18
Cc1ccc(C)c(S(=O)(=O)Nc2cc(SCC(=O)O)c(O)c3ccccc23)c1 | 15
O=[N+]([O-])c1cc(S(=O)(=O)N2CCCC2)ccc1N/N=C1/CCCc2ccccc21 | 13
CCOC(=O)CC1C(=O)NCCN1c1nc2ccc(C)cn2c(=O)c1/C=C1\SC(=S)N(CC(C)C)C1=O (stereo not given) | 6
CC1=CC(=O)C(C(C)C)=C/C1=N\OC(=O)c1cccc2nc(C)oc12 | 21
CC(C)C(=O)NC(Nc1cc(C(F)(F)F)ccc1Cl)C(Cl)(Cl)Cl (stereo not given) | 12
NC(=O)c1sc2nc(-c3ccccc3)c3c(c2c1N)CCCC3 | 13
CCn1c(C)c(C(C)=O)c(N2CCN(c3ccc(OC)cc3)CC2)nc1=S | 18
CCCCc1ccc(NC(=S)Nc2ccc(Nc3ccc(OC)cc3)cc2)cc1 | 12
CC1Cc2ccccc2N1S(=O)(=O)c1cccc(C(=O)NCCCn2ccnc2)c1 (stereo not given) | 15
CCN(CC)CCOC(=O)c1ccc(NC(=O)c2cccc(C)c2[N+](=O)[O-])cc1 | 25
Cc1ccc(CSc2nnc(-c3ccncc3)n2N)cc1 | -6
Cc1ccc(C(=O)Oc2ccccc2N2C(=O)C3C4CCC(C4)C3C2=O)cc1 (stereo not given) | 11
COc1ccc(C2=NOC(C(=O)Nc3ccc4c(c3)OCO4)C2)cc1OC (stereo not given) | 3
CC(/C=N/NC(=O)Cn1cnc2c1c(=O)n(C)c(=O)n2C)=C\c1ccccc1 | 18
COCCNC(=S)N1CCN(c2ccc(Cl)cc2)CC1 | 15
Cn1nnc(NC(=S)NC(=O)/C=C/c2ccco2)n1 | 33
CNC(=O)/C=C/c1cccc(C(F)(F)F)c1 | 20
Cc1cc(/C=C2\SC(=S)NC2=O)c(C)n1-c1ccccc1 | 24
CC(=O)N1N=C(c2cccs2)CC1c1ccc(C)o1 (stereo not given) | 18
O=C(COC(=O)c1ccccc1NC(=O)C1CC1)c1ccc2c(c1)OCCO2 | 11
CCNc1ccc(S(=O)(=O)N(C)C)cc1[N+](=O)[O-] | 10
Cc1ccc(Nc2nc(N)c([N+](=O)[O-])c(NCc3ccco3)n2)cc1 | 20
NCCSc1c(-c2ccc(Cl)cc2)[nH]c2ccccc12 | 6
O=C(CNS(=O)(=O)c1ccccc1)OCC(=O)c1cccc([N+](=O)[O-])c1 | 11
COc1ccccc1-n1cc(C(=O)NCC(=O)N2CCN(Cc3ccccc3)CC2)c2ccccc2c1=O | 17
O=C(CCc1nnc(CCc2ccccc2)o1)N1CCCCC1CCn1cccn1 (stereo not given) | 15
